# FGF22 binding: FGF22 (human) thermal shift binding. Q9HCT0. 340,000 tested, 1.5% active. recombinant FGF22 thermal shift, SYPRO orange fluorescence; percent of sucrose octasulfate shift, DMSO zero. calls only at 9.99 µM;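 active = melting point raised past a set limit in the mean and every replicate; three in four hits are not shown here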
# Target sequence (Q9HCT0 whole entry, looked up): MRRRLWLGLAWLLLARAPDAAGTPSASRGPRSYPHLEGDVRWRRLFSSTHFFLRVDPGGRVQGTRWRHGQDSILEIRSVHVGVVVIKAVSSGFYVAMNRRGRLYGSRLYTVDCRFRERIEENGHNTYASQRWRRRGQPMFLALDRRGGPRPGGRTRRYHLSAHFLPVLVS
# Calls only; i = inactive; + = active, no number. The list is partial; the hit share may differ from the screen's.
SMILES | FGF22 binding
C[C@H](CO)N1C[C@H](C)[C@H](CN(C)Cc2ccc(C(=O)Nc3ccccc3N)cc2)Oc2ccc(NC(=O)CCC(F)(F)F)cc2CC1=O | i
C[C@H](CO)N1C[C@H](C)[C@H](CN(C)C(=O)Nc2cccc3ccccc23)Oc2ccc(NS(=O)(=O)c3ccccc3)cc2C1=O | i
COc1ccccc1S(=O)(=O)N[C@H]1CC[C@H](CCNC(=O)C2CCCC2)O[C@@H]1CO | i
COc1ccc(S(=O)(=O)Nc2ccc3c(c2)C(=O)N([C@H](C)CO)C[C@H](C)[C@H](CN(C)S(=O)(=O)c2ccc(C)cc2)OCCCC[C@H](C)O3)cc1 | i
Cc1noc(C)c1NC(=O)N(C)C[C@H]1Oc2ncc(C3=CCCC3)cc2C(=O)N([C@H](C)CO)C[C@H]1C | i
C[C@@H]1CCCCO[C@@H](CN(C)Cc2ccccc2)[C@H](C)CN([C@@H](C)CO)C(=O)c2cc(NC(=O)CCC(F)(F)F)ccc2O1 | i
C[C@H](CO)N1C[C@H](C)[C@@H](CN(C)C)Oc2ccc(NC(=O)CCC(F)(F)F)cc2CC1=O | i
Cc1ccc(N)cc1CN1CCN(c2ncc(Cc3ccccc3)cn2)CC1 | i
COCC(=O)N(C)C[C@@H]1Oc2ncc(/C=C/c3ccccc3)cc2C(=O)N([C@@H](C)CO)C[C@@H]1C | i
CC(C)NC(=O)Nc1ccc2c(c1)C(=O)N(C)[C@H]1CC[C@H](CC(=O)NCC(F)(F)F)O[C@H]1CO2 | i
Cc1ccccc1S(=O)(=O)N1[C@@H]2c3cccc(=O)n3C[C@H]1[C@H](CO)[C@H]2C(=O)N1CCOCC1 | i
COc1cccc(S(=O)(=O)N[C@@H]2CC[C@@H](CC(=O)NC3CCC3)O[C@H]2CO)c1 | i
C[C@H](CO)N1C[C@H](C)[C@@H](CN(C)Cc2ccc(C(F)(F)F)cc2)Oc2ccc(NC(=O)Cn3cnnn3)cc2C1=O | i
CC(C)NC(=O)Nc1ccc2c(c1)C(=O)N([C@@H](C)CO)C[C@H](C)[C@H](CN(C)C(=O)CCCN(C)C)OCCCC[C@H](C)O2 | i
C[C@@H]1CN([C@H](C)CO)C(=O)c2cc(-c3ccc(C(=O)N(C)C)cc3)cnc2O[C@@H]1CN(C)C | i
O=C(N[C@@H](Cc1cccnc1)C(=O)N1CCC[C@H]1C(=O)NC1CCCC1)C1CC1 | i
C[C@H](O)C#Cc1ccc2c(c1)O[C@H](CN(C)C(=O)C1CCC1)[C@H](C)CN([C@H](C)CO)S2(=O)=O | i
O=C(Nc1ccccc1Cl)N1[C@@H]2CNc3ccccc3[C@@H]2[C@@H]1CO | i
Cc1noc(C)c1NC(=O)N(C)C[C@H]1Oc2ccc(NS(=O)(=O)c3ccc(Cl)cc3)cc2C(=O)N([C@@H](C)CO)C[C@H]1C | i
C[C@@H]1CCCCO[C@H](CN(C)C(=O)Nc2ccc(F)cc2)[C@H](C)CN([C@@H](C)CO)C(=O)c2cc(NC(=O)Nc3ccc(C(F)(F)F)cc3)ccc2O1 | +
COc1ccc(S(=O)(=O)N(C)C[C@H]2Oc3c(NC(=O)CCCCCC(=O)Nc4ccccc4N)cccc3C(=O)N([C@@H](C)CO)C[C@H]2C)cc1 | i
O=C([C@H]1[C@H](CO)[C@H]2Cn3c(cccc3=O)[C@H]2N1C(=O)CC1CC1)N1CCCCC1 | i
C[C@@H]1CN([C@H](C)CO)C(=O)c2cc(-c3ccccc3F)cnc2O[C@H]1CN(C)C(=O)C1CC1 | i
C[C@@H]1CN([C@H](C)CO)S(=O)(=O)c2ccc(C#CCN(C)C)cc2O[C@H]1CN(C)Cc1ccccn1 | i
COc1ccc(NC(=O)N(C)C[C@@H]2Oc3c(NC(=O)Nc4ccc5c(c4)OCO5)cccc3C(=O)N([C@H](C)CO)C[C@@H]2C)cc1 | i
COCC(=O)N(C)C[C@@H]1Oc2ncc(-c3cccc(OC)c3)cc2C(=O)N([C@H](C)CO)C[C@H]1C | i
O=C(c1cccc(F)c1)N1CC2(C1)[C@H](c1ccccc1)[C@H](CO)N2C(=O)C1CC1 | i
CC(=O)N1CC2(C1)[C@H](c1ccc(-c3ccc(C#N)cc3)cc1)[C@H](CO)N2C(C)=O | i
O=C(NCC[C@@H]1CC[C@H](NS(=O)(=O)c2ccc(F)cc2)[C@@H](CO)O1)Nc1ccc(F)cc1 | i
C[C@@H]1CN([C@@H](C)CO)C(=O)Cc2cc(NC(=O)Nc3ccccc3)ccc2O[C@H]1CN(C)Cc1ccc(C(F)(F)F)cc1 | i
N#C[C@@H]1[C@H](c2ccccc2C2=CCCCC2)[C@H](CO)N1C(=O)NC1CCCC1 | i
C[C@@H]1CCCCO[C@@H](CN(C)Cc2ccncc2)[C@H](C)CN([C@H](C)CO)C(=O)c2cc(NC(=O)c3ccncc3)ccc2O1 | i
C[C@@H]1CN([C@H](C)CO)C(=O)c2cc(C#CC3CCCCC3)cnc2O[C@H]1CN(C)C(=O)Nc1ccccc1 | i
COc1cccc(C#Cc2ccc3c(c2)[C@H]2[C@H](CCN2C(=O)c2ccccc2F)[C@H](CO)N3)c1 | i
Cc1ccccc1-c1ccc([C@H]2[C@@H](CO)N3CCCCN(S(=O)(=O)c4cn(C)cn4)C[C@H]23)cc1 | i
C[C@H](CO)N1C[C@H](C)[C@H](CN(C)C(=O)CC2CC2)Oc2ncc(C#CCC3CCCC3)cc2C1=O | i
COc1cccc(C=C2SC(=S)N(Cc3ccco3)C2=O)c1OC | i
C[C@@H]1CN([C@@H](C)CO)C(=O)Cc2cc(NC(=O)C3CCCCC3)ccc2O[C@H]1CN(C)Cc1ccc(-c2ccccc2)cc1 | i
CO[C@@H]1CC[C@H]2CCOc3c(C#N)cccc3C(=O)N(C)C[C@H](c3ccccc3)CC(=O)N(C)C[C@H]1O2 | i
COc1ccc(CN(C)C[C@H]2Oc3c(NC(=O)Nc4ccc(C(F)(F)F)cc4)cccc3C(=O)N([C@@H](C)CO)C[C@@H]2C)cc1 | i
O=C(C[C@H]1CC[C@H]2[C@@H](COC[C@@H](O)CN2S(=O)(=O)c2ccccc2)O1)NCCN1CCCCC1 | i
C[C@@H]1CN([C@@H](C)CO)C(=O)c2cc(NC(=O)C3CCCCC3)ccc2O[C@H]1CN(C)C(=O)Nc1ccc2c(c1)OCO2 | i
C[C@H](CO)N1C[C@H](C)[C@@H](CN(C)S(=O)(=O)c2ccccc2)Oc2ccc(NS(=O)(=O)c3ccc(F)cc3)cc2CC1=O | i
COCC(=O)N1[C@H](C#N)[C@@H](c2ccccc2-c2cccc(C)c2)[C@@H]1CO | i
C[C@H](CO)N1C[C@H](C)[C@@H](CN(C)C(=O)Nc2ccc(C(F)(F)F)cc2)Oc2ccc(NC(=O)C3CC3)cc2CC1=O | i
O=C(O)C[C@@H]1CC[C@H](NC(=O)c2ccccc2F)[C@H](CO)O1 | i
COc1ccccc1S(=O)(=O)Nc1ccc2c(c1)C(=O)N(C)C[C@@H](OC)[C@@H](C)CN[C@@H](C)CO2 | i
CO[C@@H]1CN(C)C(=O)c2ccc(NC(=O)C3CC3)cc2OC[C@@H](C)N(C(=O)CN2CCOCC2)C[C@@H]1C | i
CCC(=O)N(C)C[C@H]1Oc2cc(-c3ccc(C)cc3)ccc2S(=O)(=O)N([C@@H](C)CO)C[C@H]1C | i
CC(=O)Nc1ccc2c(c1)C(=O)N(C)[C@@H]1CC[C@H](CC(=O)NCc3ccccc3Cl)O[C@H]1CO2 | i
O=C(C[C@@H]1C=C[C@@H](NC(=O)c2cccc(F)c2)[C@@H](CO)O1)NCc1ccccc1 | i
COc1cccc(-c2ccc3c(c2)[C@H]2[C@H](CCN2C(=O)CN2CCOCC2)[C@H](CO)N3)c1 | i
COCC(=O)N1CC2(C1)[C@@H](c1ccc(C3=CCCC3)cc1)[C@H](CO)N2C(=O)COC | i
O=C(C1CCC1)N1C[C@H]2[C@@H](c3ccccc31)[C@@H](CO)N2Cc1ccccc1 | i
CNC[C@H]1OCCCC[C@H](C)Oc2ccc(NS(=O)(=O)c3ccccc3)cc2C(=O)N([C@@H](C)CO)C[C@H]1C | i
C[C@H](CO)N1C[C@H](C)[C@@H](CN(C)Cc2ccc(C(F)(F)F)cc2)Oc2c(NC(=O)Nc3ccc(F)cc3)cccc2C1=O | i
CC(C)NC(=O)Nc1ccc2c(c1)C(=O)N([C@H](C)CO)C[C@@H](C)[C@H](CN(C)S(=O)(=O)c1ccc(F)cc1)OCCCC[C@H](C)O2 | i
C[C@@H]1CN([C@@H](C)CO)C(=O)Cc2cc(NC(=O)Nc3cccc4ccccc34)ccc2O[C@@H]1CN(C)C(=O)Nc1ccccc1 | i
CO[C@@H]1CN(C)C(=O)c2ccc(NC(=O)Nc3c(C)noc3C)cc2OC[C@@H](C)N(CC2CC2)C[C@@H]1C | i
CCCNC(=O)N(C)C[C@@H]1Oc2ncc(-c3ccc(OC)cc3)cc2C(=O)N([C@H](C)CO)C[C@@H]1C | i

# Next section
SMILES | FGF22 binding
O=C(NCC[C@@H]1CC[C@@H](NS(=O)(=O)c2cccc(F)c2)[C@@H](CO)O1)c1cnccn1 | i
O=C(NCC(F)(F)F)[C@H]1[C@H](CO)[C@H]2Cn3c(cccc3=O)[C@H]2N1C(=O)C1CCCC1 | i
COc1ccc(NC(=O)N(C)C[C@@H]2Oc3ccc(NC(=O)c4ccncc4)cc3C(=O)N([C@H](C)CO)C[C@H]2C)cc1 | i
COc1ccc(NC(=O)Nc2ccc3c(c2)C(=O)N([C@@H](C)CO)C[C@H](C)[C@@H](CN(C)S(=O)(=O)c2cccs2)O3)cc1 | i
COc1ccc(NC(=O)N[C@H]2CC[C@@H](CCNC(=O)CCN3CCCCC3)O[C@H]2CO)cc1 | i
CN(C)CCCNC(=O)C[C@H]1CC[C@H](NS(=O)(=O)c2ccccc2)[C@@H](CO)O1 | i
Cc1ccc(S(=O)(=O)Nc2cccc3c2O[C@@H](CN(C)C(=O)Nc2ccccc2)[C@@H](C)CN([C@@H](C)CO)C3=O)cc1 | i
C[C@@H]1CN([C@H](C)CO)C(=O)c2cc(-c3cccc(F)c3)cnc2O[C@@H]1CN(C)C(=O)c1ccccn1 | i
CCCC(=O)Nc1ccc2c(c1)OC[C@@H](C)N(CC1CCCC1)C[C@H](C)[C@H](OC)CN(C)C2=O | i
COc1ccc(C#Cc2ccc([C@H]3[C@H]4CN(C)CCCCN4[C@H]3CO)cc2)cc1 | i
CC(C)NC(=O)N(C)C[C@H]1Oc2ccc(NC(=O)Nc3ccc4c(c3)OCO4)cc2C(=O)N([C@H](C)CO)C[C@H]1C | i
C[C@H]1CN([C@@H](C)CO)C(=O)Cc2cc(NC(=O)Cc3cn(C)c4ccccc34)ccc2O[C@H]1CN(C)Cc1ccc(C(=O)Nc2ccccc2N)cc1 | i
CN(C)CC(=O)N1[C@H](C#N)[C@@H](c2ccc(C#CC3CC3)cc2)[C@@H]1CO | i
CC(=O)N[C@@H]1CC[C@H](CC(=O)NCc2ccc(Cl)cc2)O[C@H]1CO | i
Cc1ccc(S(=O)(=O)N[C@H]2CC[C@H](CCNC(=O)C3CCCCC3)O[C@@H]2CO)cc1 | i
C[C@H]1CN([C@@H](C)CO)C(=O)c2cc(NS(=O)(=O)c3cccs3)ccc2O[C@H]1CN(C)C | i
COc1cccc(S(=O)(=O)N[C@@H]2CC[C@@H](CC(=O)NCc3ccncc3)O[C@@H]2CO)c1 | i
C[C@@H](NC(=O)C[C@H]1CC[C@@H]2[C@H](COC[C@H](O)CN2Cc2ccc(C(F)(F)F)cc2)O1)c1ccccc1 | i
O=C(C[C@@H]1CC[C@@H]2[C@H](COC[C@H](O)CN2C(=O)c2ccccc2F)O1)N1CCOCC1 | i
C[C@@H]1CN([C@@H](C)CO)C(=O)c2cc(NS(C)(=O)=O)ccc2O[C@@H]1CN(C)C(=O)Nc1ccc(F)cc1 | i
C[C@@H]1CN([C@H](C)CO)C(=O)c2cccc(NC(=O)c3cnccn3)c2O[C@@H]1CN(C)CC1CC1 | i
CC(C)C(=O)Nc1ccc2c(c1)C(=O)N(C)[C@H]1CC[C@H](CC(=O)NCCc3ccccc3)O[C@@H]1CO2 | i
COc1ccc(-c2ccc([C@@H]3[C@H]4CN(C(=O)c5ccc(F)cc5)CCCCN4[C@H]3CO)cc2)cc1 | i
COc1ccc(-c2ccc3n(c2=O)C[C@@H]2[C@@H](CO)[C@H](C(=O)NC4CCC4)N(S(C)(=O)=O)[C@H]32)cc1 | i
CCC(=O)Nc1ccc2c(c1)OC[C@@H](C)N(CC1CC1)C[C@@H](C)[C@@H](OC)CN(C)C2=O | i
C[C@@H]1CN([C@@H](C)CO)C(=O)c2cc(NC(=O)Cc3ccccc3)ccc2O[C@H]1CN(C)Cc1ccncc1 | i
O=C(Cc1ccccc1)N[C@H]1CC[C@H](CC(=O)N2CCOCC2)O[C@@H]1CO | i

# Screens as filed in PubChem.
